Bioassay records from PubChem.
DUX4 txn inh: blocks DUX4-driven transcriptional activation. 293T-iDUX4 ZSCAN4-Gaussia luciferase reporter, 24 h; active compounds read low. activity change, negative = inhibition, % (no concentration beside the values). 37,000 tested, 0.8% active;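 active = -10% or lower and over 25 points stronger than a control reporter; inconclusive = -10% or lower with a smaller gap; inactive = above -10%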;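 also: 0% = median of neutral control wells and -100% = median of positive control wells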
DUX4 txn inh difference: recorded beside DUX4 txn inh, whose call it bears; Gaussia minus Italica difference, %; measured here: selective DUX4 reporter inhibition;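 worked out from the two reporters; negative = selective loss of the DUX4 reporter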
DUX4 txn inh control: also measured in DUX4 txn inh; calls as there; activity change, negative = inhibition, %; measured here: Italica tet-on control reporter;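 0 = neutral control and -100 = positive control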
* hit, by the source's call; ? = inconclusive; nt = no result given; & = joins results of further samples.

SMILES	DUX4 txn inh	DUX4 txn inh difference	DUX4 txn inh control
N#Cc1cccc(-c2ccc([C@H]3[C@@H](CO)N4CCCCN(C(=O)Cc5cccnc5)C[C@@H]34)cc2)c1	15.1	-4.3	19.4
O=C(O)[C@@H]1[C@@H](CO)[C@@H]2Cn3c(ccc(-c4ccccc4F)c3=O)[C@H]1N2C(=O)c1cccnc1	-6.2	-6.4	0.2
O=C(Cc1ccccn1)N1CCCCN2[C@H](CO)[C@H](c3ccc(-c4ccccc4F)cc3)[C@@H]2C1	?	nt	nt
C[C@@H]1CN([C@@H](C)CO)C(=O)CCCn2cc(nn2)CO[C@H]1CN(C)C(=O)Oc1ccc2ccccc2c1	5.5	6.5	-1.0
O=C(O)[C@H]1[C@H](CO)[C@H]2Cn3c(ccc(-c4cccnc4)c3=O)[C@@H]1N2S(=O)(=O)c1ccccc1F	0.1	2.7	-2.6
COc1cccc(-c2ccc([C@H]3[C@@H](CO)N4CCCCN(C(=O)Cc5ccncc5)C[C@@H]34)cc2)c1	?	nt	nt
COC(=O)[C@H]1[C@H](CO)[C@H]2Cn3c(ccc(-c4cccnc4)c3=O)[C@@H]1N2S(=O)(=O)c1ccccc1C	-1.8	0.5	-2.3
O=C(O)[C@H]1[C@H](CO)[C@H]2Cn3c(ccc(-c4ccncc4)c3=O)[C@@H]1N2C(=O)C1CCCC1	4.0	1.5	2.4
COC(=O)[C@H]1[C@H](CO)[C@H]2Cn3c(ccc(C4=CCCCC4)c3=O)[C@@H]1N2C(=O)CC1CC1	3.3	-2.5	5.8
COC(=O)[C@@H]1[C@@H](CO)[C@@H]2Cn3c(ccc(-c4ccccc4OC)c3=O)[C@H]1N2Cc1ccccc1	-7.7	-2.9	-4.8
COC(=O)[C@@H]1[C@@H](CO)[C@@H]2Cn3c(ccc(-c4cccc(C(=O)N(C)C)c4)c3=O)[C@H]1N2C(=O)NC(C)C	7.8	4.6	3.2
COC(=O)[C@@H]1[C@@H](CO)[C@@H]2Cn3c(ccc(-c4cccc(C(=O)N(C)C)c4)c3=O)[C@H]1N2CC1CC1	4.0	-1.4	5.4
C[C@H](CO)N1C[C@H](C)[C@@H](CN(C)C(=O)Oc2ccc3ccccc3c2)OCc2cnnn2CCCC1=O	6.6	4.3	2.4
C[C@@H]1CN([C@H](C)CO)C(=O)CCCn2cc(nn2)CO[C@H]1CN(C)C(=O)Oc1cccc2ccccc12	6.7	10.8	-4.1
CC=Cc1ccc2n(c1=O)C[C@@H]1[C@@H](CO)[C@H](C(=O)N(C)C)[C@H]2N1C (mixture of isomers)	-7.6	-7.2	-0.5
COC(=O)C[C@H]1CC[C@@H]2NC[C@@H](O)COC[C@H]2O1	-2.8	1.2	-4.0
COC(=O)C[C@H]1CC[C@@H]2NC[C@H](O)COC[C@H]2O1	3.6	-0.6	4.2
COC(=O)[C@@H]1[C@@H](CO)[C@@H]2Cn3c(cccc3=O)[C@H]1N2C(=O)C1CC1	2.3	6.4	-4.2
CC=Cc1ccc2n(c1=O)C[C@@H]1[C@@H](CO)[C@H](C(=O)OC)[C@H]2N1CC1CC1 (mixture of isomers)	2.7	-0.5	3.2
OC[C@@H]1[C@H]2c3ccccc3NC[C@H]2N1Cc1cccnc1	0.0	-1.9	1.8
COC(=O)[C@H]1[C@H](CO)[C@H]2Cn3c(ccc(-c4ccc(F)cc4)c3=O)[C@@H]1N2C(=O)c1ccccc1F	-1.7	0.2	-1.9
O=C(Cc1ccccc1)N1C[C@@H]2[C@H](c3ccccc31)[C@@H](CO)N2Cc1ccccc1	0.8	0.4	0.5
O=C(Cc1ccncc1)N1CCCCN2[C@H](CO)[C@@H](c3ccc(C#Cc4ccccc4F)cc3)[C@H]2C1	-27.9*	-31.9*	4.0*
O=C(O)[C@@H]1[C@@H](CO)[C@@H]2Cn3c(ccc(-c4cccnc4)c3=O)[C@H]1N2S(=O)(=O)c1ccccc1F	-2.3	-3.6	1.3
C/C=C/c1ccc([C@H]2[C@H]3CN(C(=O)Cc4ccncc4)CCCCN3[C@H]2CO)cc1	13.6	-7.0	20.6
SMILES	DUX4 txn inh	DUX4 txn inh difference	DUX4 txn inh control
COC(=O)[C@@H]1[C@@H](CO)[C@@H]2Cn3c(ccc(-c4ccccc4F)c3=O)[C@H]1N2Cc1cccnc1	-4.8	-14.7	9.9
O=C(Cc1ccccn1)N1CCCCN2[C@H](CO)[C@H](c3ccc(C#Cc4ccccc4)cc3)[C@H]2C1	?	nt	nt
Cc1cccc(S(=O)(=O)N2[C@@H]3Cn4c(ccc(-c5cccc(F)c5)c4=O)[C@H]2[C@@H](C(=O)O)[C@@H]3CO)c1	-0.5	2.8	-3.2
Cc1ccccc1-c1ccc([C@@H]2[C@H](CO)N3CCCCN(C(=O)Cc4ccccn4)C[C@@H]23)cc1	3.4	-0.7	4.1
COC(=O)[C@@H]1[C@@H](CO)[C@@H]2Cn3c(ccc(-c4ccncc4)c3=O)[C@H]1N2CCc1ccccc1	-4.2	2.6	-6.8
C/C=C/c1ccc(C2[C@@H]3CN(Cc4cccnc4)C[C@H]2N3)cc1 (stereo partly drawn)	2.8&9.8	-10.6&-4.1	13.4&14.0
OC[C@H]1Nc2ccc(C#Cc3cccnc3)cc2[C@H]2NCC[C@H]21	-8.0	-13.8	5.8
O=C(Cc1cccnc1)N1CCCCN2[C@H](CO)[C@@H](c3ccc(C#CC4CCCC4)cc3)[C@H]2C1	?	nt	nt
COC(=O)[C@@H]1[C@@H](CO)[C@@H]2Cn3c(ccc(-c4ccccc4F)c3=O)[C@H]1N2C(C)=O	5.4	0.6	4.8
CC=Cc1ccc2n(c1=O)C[C@H]1[C@H](CO)[C@@H](C(=O)OC)[C@@H]2N1S(=O)(=O)c1cccc(C)c1 (mixture of isomers)	3.3	3.0	0.3
C[C@H](CO)N1C[C@H](C)[C@@H](CN(C)C(=O)Oc2cccc3ccccc23)OCc2cn(nn2)CCCC1=O	6.3	3.6	2.7
O=C(Cc1ccccc1)N1C[C@@H]2[C@H](c3ccccc31)[C@H](CO)N2Cc1ccccc1	1.7	3.2	-1.5
N#Cc1ccc(-c2ccc([C@H]3[C@@H](CO)N4CCCCN(C(=O)Cc5ccccc5)C[C@@H]34)cc2)cc1	-1.7	0.0	-1.7
COC(=O)[C@H]1[C@H](CO)[C@H]2Cn3c(ccc(C4=CCCCC4)c3=O)[C@@H]1N2Cc1cccnc1	0.8	2.0	-1.2
CCCNC(=O)N1[C@@H]2Cn3c(ccc(-c4cccc(C(=O)N(C)C)c4)c3=O)[C@H]1[C@@H](C(=O)O)[C@@H]2CO	2.9	0.7	2.2
COC(=O)[C@H]1[C@H](CO)[C@H]2Cn3c(ccc(-c4ccncc4)c3=O)[C@@H]1N2S(=O)(=O)c1ccccc1F	-2.3	-5.7	3.4
COC(=O)[C@H]1[C@H](CO)[C@H]2Cn3c(ccc(C4=CCCCC4)c3=O)[C@@H]1N2CC1CC1	-3.0	-1.9	-1.1
COc1ccc(C#Cc2ccc([C@H]3[C@@H](CO)N4CCCCN(C(=O)Cc5ccccc5)C[C@@H]34)cc2)cc1	?	nt	nt
COc1cccc(-c2ccc([C@@H]3[C@H]4CN(C(=O)Cc5ccncc5)CCCCN4[C@H]3CO)cc2)c1	6.9	3.4	3.5
CC=Cc1ccc2n(c1=O)C[C@H]1[C@H](CO)[C@@H](C(=O)O)[C@@H]2N1S(=O)(=O)c1ccccc1C (mixture of isomers)	0.4	-13.9	14.4
N#Cc1ccc(-c2ccc([C@H]3[C@H](CO)N4CCCCN(C(=O)Cc5ccccc5)C[C@@H]34)cc2)cc1	9.4	-12.4	21.7
CCC(=O)N1[C@@H]2Cn3c(ccc(-c4ccc(F)cc4)c3=O)[C@H]1[C@@H](C(=O)OC)[C@@H]2CO	-2.0	-1.3	-0.7
O=C(Cc1ccccc1)N1CC2(C1)[C@@H](c1ccccc1)[C@@H](CO)N2Cc1cccc(F)c1	-6.1	-12.8	6.7
O=C1CNC[C@H]2[C@H](c3ccc(Br)cc3)[C@H](CO)N12	9.9	5.5	4.4
COc1ccc(C#Cc2ccc([C@@H]3[C@@H](CO)N4CCCCN(C(=O)Cc5cccnc5)C[C@@H]34)cc2)cc1	?	nt	nt
SMILES	DUX4 txn inh	DUX4 txn inh difference	DUX4 txn inh control
C/C=C/c1ccc([C@H]2[C@@H](CO)N3CCCCN(C(=O)Cc4ccncc4)C[C@H]23)cc1	-0.5	21.2	-21.7
C/C=C/c1ccc([C@H]2[C@H]3CN(C(=O)Cc4cccnc4)CCCCN3[C@H]2CO)cc1	10.7	9.0	1.7
COc1ccc(C#Cc2ccc([C@@H]3[C@H]4CN(C(=O)Cc5ccccc5)CCCCN4[C@H]3CO)cc2)cc1	?	nt	nt
COC(=O)[C@@H]1[C@@H](CO)[C@@H]2Cn3c(ccc(C4=CCCC4)c3=O)[C@H]1N2Cc1ccccn1	0.4	-3.0	3.4
O=C(Cc1ccccn1)N1CCCCN2[C@H](CO)[C@H](c3ccc(C#Cc4ccccc4)cc3)[C@@H]2C1	?	nt	nt
Cc1ccc(OC(=O)N(C)C[C@@H]2OCc3cnnn3CCCC(=O)N([C@H](C)CO)C[C@H]2C)cc1	3.7	3.3	0.4
C/C=C/c1ccc([C@H]2[C@@H](CO)N3CCCCN(C(=O)Cc4ccncc4)C[C@@H]23)cc1	10.8	-1.8	12.6
Cc1ccc(OC(=O)N(C)C[C@H]2OCc3cnnn3CCCC(=O)N([C@H](C)CO)C[C@@H]2C)cc1	-0.8	-2.9	2.1
COC(=O)[C@H]1[C@H](CO)[C@H]2Cn3c(ccc(-c4ccccc4F)c3=O)[C@@H]1N2	-3.2	-6.8	3.6
CC=Cc1ccc2n(c1=O)C[C@@H]1[C@@H](CO)[C@H](C(=O)OC)[C@H]2N1S(=O)(=O)c1ccccc1C (mixture of isomers)	3.0	0.8	2.2
C/C=C/c1ccc([C@@H]2[C@@H](CO)N3CCCCN(C(=O)Cc4ccncc4)C[C@H]23)cc1	18.5	4.9	13.6
OC[C@H]1[C@H]2c3ccccc3NC[C@H]2N1Cc1cccnc1	-1.9	-1.7	-0.2
C/C=C/c1ccc([C@@H]2[C@@H](CO)N3CCCCN(C(=O)Cc4cccnc4)C[C@@H]23)cc1	18.0	0.8	17.3

Ordered by formula weight (high to low): part of the list above
SMILES	DUX4 txn inh	DUX4 txn inh difference	DUX4 txn inh control
C[C@H](CO)N1C[C@H](C)[C@@H](CN(C)C(=O)Oc2cccc3ccccc23)OCc2cn(nn2)CCCC1=O	6.3	3.6	2.7
COc1ccc(C#Cc2ccc([C@@H]3[C@H]4CN(C(=O)Cc5ccccc5)CCCCN4[C@H]3CO)cc2)cc1	?	nt	nt
O=C(Cc1ccncc1)N1CCCCN2[C@H](CO)[C@@H](c3ccc(C#Cc4ccccc4F)cc3)[C@H]2C1	-27.9*	-31.9*	4.0*
Cc1ccc(OC(=O)N(C)C[C@H]2OCc3cnnn3CCCC(=O)N([C@H](C)CO)C[C@@H]2C)cc1	-0.8	-2.9	2.1
COc1cccc(-c2ccc([C@H]3[C@@H](CO)N4CCCCN(C(=O)Cc5ccncc5)C[C@@H]34)cc2)c1	?	nt	nt
COC(=O)[C@@H]1[C@@H](CO)[C@@H]2Cn3c(ccc(-c4ccccc4OC)c3=O)[C@H]1N2Cc1ccccc1	-7.7	-2.9	-4.8
CC=Cc1ccc2n(c1=O)C[C@@H]1[C@@H](CO)[C@H](C(=O)OC)[C@H]2N1S(=O)(=O)c1ccccc1C (mixture of isomers)	3.0	0.8	2.2
O=C(O)[C@H]1[C@H](CO)[C@H]2Cn3c(ccc(-c4ccncc4)c3=O)[C@@H]1N2C(=O)C1CCCC1	4.0	1.5	2.4
C/C=C/c1ccc([C@H]2[C@H]3CN(C(=O)Cc4cccnc4)CCCCN3[C@H]2CO)cc1	10.7	9.0	1.7
COC(=O)[C@H]1[C@H](CO)[C@H]2Cn3c(ccc(C4=CCCCC4)c3=O)[C@@H]1N2CC1CC1	-3.0	-1.9	-1.1
COC(=O)[C@@H]1[C@@H](CO)[C@@H]2Cn3c(cccc3=O)[C@H]1N2C(=O)C1CC1	2.3	6.4	-4.2
O=C1CNC[C@H]2[C@H](c3ccc(Br)cc3)[C@H](CO)N12	9.9	5.5	4.4
OC[C@H]1[C@H]2c3ccccc3NC[C@H]2N1Cc1cccnc1	-1.9	-1.7	-0.2

Not all compounds are listed. The share of hits here may be higher or lower than overall.
